# Source: PubChem
# GLA inh pH 4.5 = qHTS Assay for Inhibitors of Human alpha-Galactosidase at pH 4.5 | Alpha-galactosidase A (Homo sapiens), P06280 | purified enzyme, 4-MU-alpha-Gal fluorescence, pH 4.5 | activity change, negative = inhibition, % at 105 µM | 230,000 tested, under 10 active; inconclusive = small, poorly fitted or top-dose-only inhibition, or a rising curve; inactive = flat fitted curve, though single readings scatter; no compound was filed as active;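 also: 0% = full activity with enzyme and -100% = basal without enzyme; dose as in the result columns while the protocol names 77 µM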
# Target sequence (P06280 whole entry, looked up): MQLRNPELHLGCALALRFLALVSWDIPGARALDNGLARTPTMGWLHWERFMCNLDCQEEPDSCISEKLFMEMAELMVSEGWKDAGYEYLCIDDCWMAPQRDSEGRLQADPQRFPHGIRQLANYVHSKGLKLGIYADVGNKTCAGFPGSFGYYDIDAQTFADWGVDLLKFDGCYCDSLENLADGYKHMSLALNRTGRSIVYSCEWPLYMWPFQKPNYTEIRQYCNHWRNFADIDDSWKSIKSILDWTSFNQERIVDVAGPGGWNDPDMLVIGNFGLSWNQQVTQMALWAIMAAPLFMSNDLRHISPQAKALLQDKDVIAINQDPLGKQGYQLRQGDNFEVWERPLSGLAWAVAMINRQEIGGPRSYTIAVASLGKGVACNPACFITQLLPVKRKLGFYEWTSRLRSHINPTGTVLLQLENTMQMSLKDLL
# An asterisk follows results filed as active; ? = inconclusive; & = joins results of further samples. This is a subset (hit frequency here may not be typical).
# Preview:
entry	mol	GLA inh pH 4.5
1	NC(N)=NN=Cc1c(Cl)cccc1Cl	0&-1
2	Cc1cc(C)c(S(=O)(=O)Nc2cccc(C(F)(F)F)c2)c(C)c1	-17
3	OCC(O)C(O)C(O)C(O)C(O)CO (stereo not drawn)	-1
4	C=CC1=C(C)/C(=C/c2[nH]c(Cc3[nH]c(/C=C4\NC(=O)C(C)=C4C=C)c(C)c3CCC(=O)O)c(CCC(=O)O)c2C)NC1=O	-8
5	C=CCOC(=O)C1(C(NC(=O)OC)c2ccccc2)C(=O)Cc2ccccc21 (stereo not drawn)	-13
6	c1ccc(-c2csc(-c3nc4ccccc4[nH]3)n2)cc1	4
7	O=C(N[C@@H](CO)[C@@H](O)c1ccc([N+](=O)[O-])cc1)C(Cl)Cl	-1
8	CC(=O)N1CCN(c2ccc(OC[C@@H]3CO[C@@](Cn4ccnc4)(c4ccc(Cl)cc4Cl)O3)cc2)CC1	-3
9	O=[N+]([O-])O[C@H]1CO[C@H]2[C@@H]1OC[C@H]2O	-17
10	CCCCCCCCCCCCCCCC(=O)C(F)(F)F	-1
11	COc1cc2c(cc1OC)OC(C)(C)C=C2	0
12	C[C@H](N)C(=O)O	4
13	C[C@@H]1C=C[C@](Cc2ccccc2)(C(=O)NCCN2CCOCC2)N1C(=O)c1ccccc1	3

# This part in full, from the first entry:
entry	mol	GLA inh pH 4.5
1	NC(N)=NN=Cc1c(Cl)cccc1Cl	0&-1
2	Cc1cc(C)c(S(=O)(=O)Nc2cccc(C(F)(F)F)c2)c(C)c1	-17
3	OCC(O)C(O)C(O)C(O)C(O)CO (stereo not drawn)	-1
4	C=CC1=C(C)/C(=C/c2[nH]c(Cc3[nH]c(/C=C4\NC(=O)C(C)=C4C=C)c(C)c3CCC(=O)O)c(CCC(=O)O)c2C)NC1=O	-8
5	C=CCOC(=O)C1(C(NC(=O)OC)c2ccccc2)C(=O)Cc2ccccc21 (stereo not drawn)	-13
6	c1ccc(-c2csc(-c3nc4ccccc4[nH]3)n2)cc1	4
7	O=C(N[C@@H](CO)[C@@H](O)c1ccc([N+](=O)[O-])cc1)C(Cl)Cl	-1
8	CC(=O)N1CCN(c2ccc(OC[C@@H]3CO[C@@](Cn4ccnc4)(c4ccc(Cl)cc4Cl)O3)cc2)CC1	-3
9	O=[N+]([O-])O[C@H]1CO[C@H]2[C@@H]1OC[C@H]2O	-17
10	CCCCCCCCCCCCCCCC(=O)C(F)(F)F	-1
11	COc1cc2c(cc1OC)OC(C)(C)C=C2	0
12	C[C@H](N)C(=O)O	4
13	C[C@@H]1C=C[C@](Cc2ccccc2)(C(=O)NCCN2CCOCC2)N1C(=O)c1ccccc1	3
14	C[C@@H]1C[C@](C)(C(=O)c2ccc3c(c2)OCO3)C=C1c1ccc2c(c1)OCO2	-10
15	C=C(C)C(=O)c1ccc(F)cc1	1
16	COC(=O)[C@H]1O[C@@H](c2cc(OC)c(C)c(OC)c2O)[C@H](C)[C@@H](O)[C@H]1C	-5
17	CCOC(=O)C1=C[C@@]2(CC)CCCN3CCc4c(n1c1ccccc41)C32 (stereo partly drawn)	1
18	O=C1c2ccccc2C(Cc2ccncc2)(Cc2ccncc2)c2ccccc21	-4
19	CC1(C)O[C@H]2C[C@@H]3[C@H]4CCC5=CC(=O)C=C[C@]5(C)[C@@]4(F)[C@@H](O)C[C@]3(C)[C@]2(C(=O)CO)O1	-7
20	c1ccc2c(N3CCNCC3)nc(-c3ccoc3)nc2c1	-5
21	COc1cc(C/C=C/c2ccccc2)c(OC)cc1O	-4
22	NCCCCCCNS(=O)(=O)c1ccc2c(Cl)cccc2c1	-9
23	CC(C)C[C@H]1C(=O)N2CCC[C@@H]2[C@]2(O)O[C@](NC(=O)[C@H]3C=C4c5cccc6[nH]c(Br)c(c56)C[C@H]4N(C)C3)(C(C)C)C(=O)N12	1
24	CC(=O)N(C[C@@H](C)C(=O)O)c1c(I)cc(I)c(N)c1I	5
25	COc1cc(OC)c([C@@H]2O[C@H](CO)[C@@H](O)[C@H](O)[C@H]2O)c(OC)c1	-10

# 2 records drawn at random from the list so far:
entry	mol	GLA inh pH 4.5
10	CCCCCCCCCCCCCCCC(=O)C(F)(F)F	-1
20	c1ccc2c(N3CCNCC3)nc(-c3ccoc3)nc2c1	-5

# Next compounds.
entry	mol	GLA inh pH 4.5
26	CC1=C(C(=O)O)N2C(=O)[C@@H](NC(=O)[C@@H](N)c3ccccc3)[C@@H]2SC1	-1
27	Cc1cnc(CNc2ccnc(-c3ccc(N(C)C)cc3)n2)cn1	-6
28	COC(=O)c1csc(C(=O)c2c[nH]c3ccccc23)n1	-21
29	Cc1ccccc1-c1nc(NCc2cccnc2)c2ccccc2n1	-1
30	COc1cccc2c1OC(=O)CC2c1ccc(C)cc1 (stereo not drawn)	-10
31	C[C@@]1(C(NC(=O)c2cccs2)c2ccc(-c3ccccc3)cc2)C[C@H]1C1CCCCC1 (stereo partly drawn)	-3
32	CN(C)Cc1ccccc1-c1nc(N2CCOCC2)c2ccccc2n1	-3
33	COC(=O)N1C(C)=Cc2ccccc2C1C/C(C)=C/C(C)=O (stereo not drawn)	0&8
34	C=CCOC(=O)NC(CC(=Nc1ccc(OC)cc1)C(=O)OC)c1ccccc1 (stereo not drawn)	0
35	COc1ccccc1CNCCCCCCNCCCCCCCCNCCCCCCNCc1ccccc1OC	-7
36	NCCCCCCCCCCNS(=O)(=O)c1cccc2c(Cl)cccc12	-18
37	COc1ccc2c(c1)O[C@@H](c1ccc3c(c1)OCO3)[C@H](OC(=O)NCCOc1ccccc1)C2=O	-3
38	N[C@H](C(=O)O)[C@@H]1C[C@@H]1C(=O)O	2&2
39	COc1ccc(OC)c(-c2ccc(C(=O)O)o2)c1	-7
40	C[C@H]1C(c2ccccc2)=NN(c2ccccc2)[C@@H]1CO	16
41	COC(=O)C(C)c1ccc(C(=O)c2cccs2)cc1 (stereo not drawn)	1
42	C=C1c2c(Cl)ccc(O)c2C(O)=C2C(=O)[C@]3(O)C(O)=C(C(N)=O)C(=O)C(N(C)C)C3C(O)C12 (stereo partly drawn)	-12
43	COc1cccc(-c2cc(=O)c3ccc(OC)cc3o2)c1	-5
44	CSc1ccc(/C=C2/C(C)=C(CC(=O)O)c3cc(F)ccc32)cc1	-11
45	Nc1ncnc2c1nc(Br)n2[C@H]1O[C@H]2COP(=O)(O)O[C@H]2[C@@H]1O	0
46	CC(=O)Nc1c(I)c(C(=O)N[C@H]2[C@@H](O)[C@H](O)[C@H](CO)O[C@@H]2O)c(I)c(N(C)C(C)=O)c1I	2
47	O=C(NC[C@H](O)c1ccccc1)c1ccccc1	2
48	CC(C)c1c(C(=O)Nc2ccccc2)c(-c2ccccc2)c(-c2ccc(F)cc2)n1CC[C@@H](O)C[C@@H](O)CC(=O)O	-10
49	CCC1=C2CC[C@H]3C(=O)N(C)C(=O)[C@H]3[C@H]2[C@@]2(C)C(=O)N(CC3CC3)C(=O)N2C1=O	-2
50	COc1c2c(cc3c1C(NC(N)=O)[N+](C)(C)CC3)OCO2 (stereo not drawn)	5

# (cont.)
entry	mol	GLA inh pH 4.5
51	COC/C=C/C1=CC2=CC(=O)C(C)(OC(=O)c3cnc4ccccc4n3)C(=O)C2=CN1CCc1c[nH]c2ccccc12 (stereo not drawn)	7
52	CC(=O)[C@H](CC(C)C)NC(=O)[C@@H](CC(C)C)NC(=O)[C@H](CC(C)C)NC(=O)OCc1ccccc1	-1
53	CC1=C(/C=C/C(C)=C/C=C/C(C)=C/C=C/C=C(C)/C=C/C=C(C)/C=C/C2=C(C)CCCC2(C)C)C(C)(C)CCC1	2
54	COC(=O)[C@H](CCCN=C(N)N)NC(=O)CCCc1c(-c2ccccc2)[nH]c2c(F)cc(F)cc12	-2
55	CCCCCCCCCCC/C=C\C/C=C\CCCC(=O)O	-11
56	CC(=O)O[C@H]1C[C@H]2CC[C@@H]3[C@H]4C[C@@H]([N+]5(C)CCCCC5)[C@@H](OC(C)=O)[C@]4(C)CC[C@@H]3[C@@]2(C)C[C@@H]1[N+]1(C)CCCCC1	1
57	COc1cc2c(cc1OC)C1CCC3=C([C@H](C)OC3=O)N1CC2 (stereo partly drawn)	1
58	Cc1cc(C)cc(C(=O)N(C)[C@H](Cc2ccc(-c3ccccc3)cc2)C(=O)N[C@@H](Cc2c[nH]c3ccccc23)C(=O)O)c1	-7
59	CC(=O)N[C@H]1C(O[C@@H]2O[C@H](C[C@@H](O)[C@H]3O[C@@H](N4CCC(=O)NC4=O)[C@H](O)[C@@H]3O)[C@H](O)[C@H](O)[C@H]2NC(=O)/C=C/CCCCCCCCCCC(C)C)OC(CO)[C@@H](O)[C@@H]1O (stereo partly drawn)	-2
60	CNC(=O)[C@H]1O[C@H](n2cnc3c(NCc4cccc(I)c4)nc(Cl)nc32)[C@@H](O)[C@@H]1O	?
61	NCCCCNS(=O)(=O)c1cccc2c(Cl)cccc12	0
62	CC(C)C1=CC2=CC[C@@H]3[C@@](C)(C(=O)O)CCC[C@]3(C)C2CC1 (stereo partly drawn)	-4
63	C=C1C2CC[C@@]3(C)C(c4ccoc4)OC(=O)C[C@@]13OC1CC(O)C(C)(C)C(CC(=O)OC)[C@@]12C (stereo partly drawn)	-14&-7
64	NCCC[C@@H](CC(=O)N[C@@H]1CCCC[C@H]1C(=O)N[C@H](CC(=O)N[C@@H](CCC(=O)O)CC(=O)O)Cc1ccccc1)NC(=O)C[C@H](CO)NC(=O)[C@@H]1CNCC[C@H]1N	-10
65	Oc1ccc2c(c1)OC(c1ccc(O)c(O)c1)C(O)C2 (stereo not drawn)	0
66	C=C(C)C1CC=C(C)C(O)C1 (stereo not drawn)	-4
67	COc1ccc(CCN(C)CCCN2CCc3cc(OC)c(OC)cc3CC2=O)cc1OC	-9&-5
68	CCC1OC(=O)CC(O)C(C)[C@@H](O[C@@H]2OC(C)[C@H](O[C@@H]3C[C@@](C)(O)C(O)C(C)O3)C(N(C)C)C2O)[C@H](CC=O)CC(C)C(=O)/C=C/C(C)=C/[C@@H]1COC1OC(C)C(O)C(OC)[C@@H]1OC (stereo partly drawn)	2
69	CCCCC[C@H](O)/C=C/[C@@H]1[C@H]2C/C(=C/CCCC(=O)O)C[C@H]2C[C@H]1O	0
70	CCCCC[C@H](O)/C=C/[C@H]1[C@H](O)CC(=O)[C@@H]1C/C=C\CCCC(=O)O	1&-2
71	CCCCC/C=C\C[C@@H](O)/C=C/C=C/C=C\[C@@H](O)CCCC(=O)O	1&4
72	C#C[C@@]1(O)CCC2C3CCc4cc(O)ccc4C3CC[C@@]21C (stereo partly drawn)	-2
73	CCCCCCCCCCCCCCCCOCC(COP(=O)([O-])OCC[N+](C)(C)C)OC (stereo not drawn)	-5
74	COc1ccc2c(c1)O[C@@H](c1cccc(C(F)(F)F)c1)[C@H](OC(=O)NCc1ccc3c(c1)OCO3)C2=O	2
75	COC(=O)C1=C(C(=O)OC)[C@@H]2Nc3ccccc3[C@@]23C[C@@H](C(=O)OC)N(S(=O)(=O)c2ccc(C(F)(F)F)cc2)C3=N1	12

# Next part
entry	mol	GLA inh pH 4.5
76	CC1=CC(=O)C2=C(C)CC[C@@H]3[C@@H](OC(=O)[C@H]3C)[C@H]12	1
77	C=C1C(=O)O[C@@H]2C3OC3(C)CC/C=C(\C)CC[C@@H]12 (stereo partly drawn)	-14
78	CC(=O)O[C@@H]1CC2C(C)(C)C(=O)C=C[C@]2(C)C2CC[C@]3(C)C(=CC[C@H]3C3CO[C@@H](C(C)(C)O)[C@H](O)C3)[C@@]21C (stereo partly drawn)	-10
79	N=S(=O)(O)Cc1noc2ccccc12	0
80	CC[C@H](C)[C@@H](NC(=O)O[C@@H]1C(=O)c2cc(OC)ccc2O[C@H]1c1cccc(OC)c1)C(=O)OC	-6
81	COC(=O)CCCC1=CC2=C(c3ccccc3)C(=O)C(C)(OC(=O)C3CCCC3)C(=O)C2=CN1CCCOC(C)C (stereo not drawn)	8
82	CCC(=O)c1c(O)cc(O)cc1O	1
83	CC1OCC23CC[C@@]4(C)CCC(C)(C)C[C@H]4[C@]2(C)CCC12C3CC[C@@]1(C)C2C(=O)CC(=O)[C@@H]1C (stereo partly drawn)	2
84	CCCCC/C=C\C/C=C\C/C=C\C/C=C\CCCCCC(=O)NCC(=O)O	-4
85	COc1cccc([C@@H]2Oc3ccc(Br)cc3C(=O)[C@H]2OC(=O)NCCc2ccc(OC)c(OC)c2)c1	-6
86	O=C1C(Cl)=C(NC2CCc3ccccc32)C(=O)c2ncccc21 (stereo not drawn)	0
87	Cc1c(C(=O)NC2CCCCC2)sc2nc3ccc(N)cc3n12	0
88	CC1(C)CC[C@]2(C(=O)O)CC[C@@]3(C)C(=CCC4[C@@]5(C)CCC(O)[C@@](C)(CO)C5CC[C@@]43C)C2C1 (stereo partly drawn)	1
89	Cc1ccccc1-c1nc(-n2ccnc2)c2ccccc2n1	-14
90	COCCn1c(C(=O)N(C)C)cc2c1C[C@H]1CN(C(=O)c3ccccc3)[C@@](Cc3ccc(F)cc3)(C(=O)OC)[C@@H]21	-11
91	CC1=C(C(=O)OCc2ccccc2)C(c2ccc(C3CCCCC3)cc2)NC(=O)N1CCCCCC(=O)O (stereo not drawn)	?
92	COc1cccc([C@@H]2Oc3ccc(Br)cc3C[C@H]2OC(=O)N[C@H](C)C2CCCCC2)c1	-6
93	CCCCCC(O)/C=C/C=C\CCCCCCCC(=O)O (stereo not drawn)	5
94	C#C[C@]1(O)CCC2C3CCC4=CC(=O)CCC4C3CC[C@@]21C (stereo partly drawn)	4
95	COc1cccc(CS(=O)(=O)c2nnnn2C2CCCCC2)c1	-7
96	C[C@H]1Cc2c(COc3ccccc3)nc3c(c2CO1)CN(S(=O)(=O)c1ccc2c(c1)OCCN2C)CC3	9
97	Nc1nc2c(c(=O)[nH]1)N=C(CNc1ccc(C(=O)NC(CCC(=O)O)C(=O)O)cc1)CN2 (stereo not drawn)	6
98	Cc1c(O)c(O)cc2c1oc1c3ccccc3oc(=O)c21	-2
99	Cc1nc2ccccc2oc1=O	-14
100	O=c1cc(-c2ccc(O)cc2O)oc2ccccc12	-11
